Screening results: PubChem BioAssay, National Center for Advancing Translational Sciences (NCATS)
VDR inh = blocks the human vitamin D receptor. 400,000 tested, 0.93% active. VDR-SRC2-3 peptide fluorescence polarization, 2 h. Potency, µM, for the others: max response, negative = inhibition, usual class: inhibitors. P11473; active = well fitted inhibition curve with a large enough effect; inconclusive = small, poorly fitted or top-dose-only effect, or another doubt; inactive = no such curve, though single readings can be large or run the other way; also: series mostly up to about 120 µM
Target sequence (P11473 whole entry, looked up): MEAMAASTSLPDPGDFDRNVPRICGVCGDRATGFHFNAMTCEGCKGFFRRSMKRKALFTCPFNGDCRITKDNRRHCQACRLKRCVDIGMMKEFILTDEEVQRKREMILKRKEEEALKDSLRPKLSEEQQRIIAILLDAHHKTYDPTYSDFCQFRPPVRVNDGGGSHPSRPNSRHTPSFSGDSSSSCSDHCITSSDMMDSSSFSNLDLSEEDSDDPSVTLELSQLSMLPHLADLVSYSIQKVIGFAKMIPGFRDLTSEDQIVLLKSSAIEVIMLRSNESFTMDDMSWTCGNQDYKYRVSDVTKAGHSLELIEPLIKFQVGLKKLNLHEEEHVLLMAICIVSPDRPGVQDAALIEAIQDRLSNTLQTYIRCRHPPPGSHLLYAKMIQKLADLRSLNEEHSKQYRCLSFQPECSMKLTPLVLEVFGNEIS
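Fluorescence polarization assay measuring small-molecule disruption of VDR binding to the coregulator peptide SRC2-3. Compounds were pin-transferred (23 nl) into the reagent mix and incubated 2 h at room temperature before reading.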
An asterisk follows results filed as active; ? = inconclusive; & = joins results of further samples. % is scaled to controls: 0 for no effect and ±100 for the full control effect; potency is read from the fitted curve at half-maximal effect. These rows are one share of the data; count on the stated rates, not on these rows.

canonical_smiles	VDR inh
O=C(Nc1ccccc1)N(Cc1cccs1)c1ccc(F)cc1	8%
CNC(=O)c1cc(S(=O)(=O)NC2CCCCCC2)ccc1C	5%
CCN(CC)c1ccc(NC(=O)c2sc3nc4c(cc3c2N)CN(C)CC4)cc1	-14%
CC(C)N(Cc1nc(-c2ccccc2)no1)C(=O)CN1C(=O)c2ccccc2C1=O	4%
Cc1ccc(-c2ccc(OC(=O)c3ccc(=O)[nH]c3)c(C)c2)cc1	-4%
Clc1ccc(-c2nc3ccccn3c2CN2CCSCC2)cc1	-30%
O=C(c1ccc([N+](=O)[O-])s1)N1CCN(c2cccc(Cl)c2)CC1	-11%
COc1ccc(-c2ccc3c(c2)S(=O)(=O)c2cccc(C(=O)NCc4ccccc4Cl)c2C3=O)cc1OC	-15%
COc1ccc(OC)c(CNC(=O)c2cc3c(-c4ccc(OC)c(OC)c4)nn(C)c3s2)c1	-13%
O=C(Cc1ncc(C(F)(F)F)cc1Cl)NCc1cccnc1	16%
COC(=O)c1c(C)oc2ccc(N(C(=O)c3ccncc3)S(=O)(=O)c3ccc(Br)cc3)cc12	3%
CCCCNS(=O)(=O)c1ccc(OC)cc1	-8%
CC(C)(Cc1ccc(O)cc1)NC(=O)CC(=O)N/N=C/c1ccc([N+](=O)[O-])cc1	7%
Cc1ccc2nc(NC(=O)COC(=O)c3ccc(Br)o3)sc2c1	-17%
O=c1c(C/C=C/c2ccccc2)c(O)ccn1Cc1cccc(Cl)c1	-14%
NC(=O)CC(NC(=O)Cc1cccc2ccccc12)c1ccc(N2CCC(N3CCCCC3)CC2)c([N+](=O)[O-])c1 (stereo not drawn)	-20%
CCCCCCS(=O)Cc1ccccc1 (stereo not drawn)	-19%
Cc1ccnc(Cc2ccccc2)n1	-3%
CCOC(OCC)P(=O)(c1ccccc1)c1ccccc1	-4%
O=C(c1cccs1)N1CCN(C(=O)c2ccco2)c2ccccc2C1	5%
CCOC(=O)c1cnc2cc(C(F)(F)F)ccc2c1N1CCN(c2ccc(F)cc2)CC1	-3%
O=[N+]([O-])c1ccc(N2CCCC2)cc1NCc1ccccc1	9%
c1ccc(-c2nn[nH]n2)cc1	-2%
CCCC(=O)N/N=C1\CS(=O)(=O)N(C)c2ccsc21	-6%
CCCCCCCNC(=O)C1(CC2CC(c3cccc(Br)c3)=NO2)CCN(C(=O)Cc2ccc(F)cc2)CC1 (stereo not drawn)	?
CCCN1CNc2c(c(=O)[nH]c(=S)n2CCc2c(OC)cccc2OC)C1	-17%
N#C/C(=C\c1ccc(N2CCOCC2)o1)C(=O)NCC1CCCO1 (stereo not drawn)	0%
CS(=O)(=O)N(CC(=O)NCCSCc1ccccc1Cl)c1ccccc1F	-1%
NNC(=O)c1nc(-c2ccccc2)cc(-c2ccccc2)n1	-8%
Cc1cccc(NC(=O)Nc2ccc(C)c(C)c2)n1	-29%&12%
Cc1ccc(-c2csc3nc[nH]c(=O)c23)cc1	0%
COc1ccc(-c2nc(CSCC(=O)N3CCN(c4ccccc4F)CC3)c(C)o2)cc1	-16%
CCc1nnc(NC(=O)C2Cc3ccccc3CN2S(=O)(=O)c2c(C)c(C)cc(C)c2C)s1 (stereo not drawn)	-2%
CC(=O)Nc1ccc(NC(=O)CCc2nc3sc4c(c3c(=O)[nH]2)CCCC4)cc1	-11%
COc1ccc(Oc2ncnc3c2ncn3Cc2ccccc2)cc1	22%
CCn1nc(C(=O)Nc2cccc(S(=O)(=O)N3CCCC3)c2)c2ccccc2c1=O	24%
COC(c1ccccc1)c1nnc(CCC(=O)NC2CCCCC2)o1 (stereo not drawn)	3%
CC1=C(C(=O)OCc2ccccc2)C(c2cccc(Cl)c2Cl)CC(=O)N1 (stereo not drawn)	-6%
CCOC(=O)c1cnc2ccc(OCC)cc2c1NCc1ccccc1OC	13%
COC(=O)c1ccc2c(=O)n(CCN3CCOCC3)c(SCC(=O)NCc3ccccc3)nc2c1	2%
CCOC(=O)C1(Cc2ccc(Cl)cc2)CCN(C(=O)c2cscn2)CC1	-9%
O=C(Nc1ccc2c(c1)nc1n2CCN(Cc2ccccc2)C1)c1cccs1	-6%
COc1ccc(/C=N/Nc2nonc2N)cc1OC	0%
NS(=O)(=O)c1ccc(CNS(=O)(=O)c2ccc3c(c2)OCCO3)cc1	-12%
COc1ccc(CCNC(=O)c2ccc(Cl)c(S(=O)(=O)N3CCCC3)c2)cc1	24%
CCOc1cccc(/C(O)=C2/C(=O)C(=O)N(CCOC)C2c2ccncc2)c1 (stereo not drawn)	-12%
C=CCOc1ccc(CNn2cn[nH]c2=S)cc1OC	14%
CCc1c(C)nc(N)nc1OCC(F)(F)C(F)F	-5%
COc1ccc(S(=O)(=O)N(CCC(N)=O)Cc2ccco2)cc1OC	-7%
CCOc1ccc(C(=O)OCc2cc(=O)n3cc(C)sc3n2)cc1	-4%
CCN1CCN(C(=O)CS(=O)Cc2nc(-c3ccc(OC)cc3)oc2C)CC1 (stereo not drawn)	2%
Cc1nn(-c2ccc(N3CCCC3)nn2)c(C)c1CCC(=O)Nc1ccc(F)cc1F	4%
CCOC(=O)c1ccc(N2C(=O)CC(N3CCN(C/C=C/c4ccccc4)CC3)C2=O)cc1 (stereo not drawn)	11%
O=C(NCc1cccs1)Nc1cccs1	13%
Cc1cc(=O)oc2cc(Oc3ccc([N+](=O)[O-])cc3C(F)(F)F)ccc12	-8%
O=C(CSc1cn(CCNC(=O)c2c(F)cccc2F)c2ccccc12)Nc1ccc2c(c1)OCCO2	-4%
Cc1ccc2[nH]c3c(c2c1)CCCC3NC(=O)CCl (stereo not drawn)	-2%
COc1ccc2c(c1)c(=O)oc1cc(OCC(=O)N3CCc4ccccc4C3)ccc12	20%
CC(C)C(NS(=O)(=O)c1ccccc1)C(=O)OCC(=O)NNC(=O)c1ccccc1 (stereo not drawn)	16%
COc1ccccc1NC(=O)c1ccc(NC(=O)c2ccco2)cc1	15%

Part of the list above in another layout:
Cc1ccc(-c2csc3nc[nH]c(=O)c23)cc1
  VDR inh: 0%
COc1ccc(-c2nc(CSCC(=O)N3CCN(c4ccccc4F)CC3)c(C)o2)cc1
  VDR inh: -16%
CCc1nnc(NC(=O)C2Cc3ccccc3CN2S(=O)(=O)c2c(C)c(C)cc(C)c2C)s1 (stereo not drawn)
  VDR inh: -2%
CC(=O)Nc1ccc(NC(=O)CCc2nc3sc4c(c3c(=O)[nH]2)CCCC4)cc1
  VDR inh: -11%

The list continues.
molecule,VDR inh
CN(C)S(=O)(=O)n1cnc2ccccc21,-5%
COc1ccc(OCCC(=O)OCC(=O)NCCc2ccccc2)cc1,8%
O=C(NCCN1CCCCC1)Nc1ccccc1F,6%
Cc1ccc(S(=O)(=O)N2CCC(C(=O)NCCc3ccc(S(N)(=O)=O)cc3)CC2)cc1,3%
C=CCNCCOCCSc1ccc(Cl)cc1,-8%
Cc1nc(NC(=O)CSc2nc3ccccc3s2)sc1C(=O)N(C)C,4%
O=C(COc1ccc2ccccc2c1)N[C@@H](C(=O)O)c1ccc(O)cc1,-4%
Cc1ccc(CNS(=O)(=O)c2ccc3c(c2)n(C)c(=O)c(=O)n3C)cc1,-5%
Cc1cc2nc(N3C(=O)CNC3=S)sc2cc1C,14%
O=C(CSc1nccn1Cc1ccccc1)NCc1ccccc1,-2%
NC(=O)C1CCN(C(=O)/C(=C/c2ccco2)NC(=O)c2ccccc2)CC1,2%
C=CCOc1ccc(/C(O)=C2\C(=O)C(=O)N(CCN(C)C)C2c2cccs2)cc1 (stereo not drawn),-16%
O=C(COC(=O)c1nc(Cl)ccc1Cl)Nc1ccc2[nH]c(=O)[nH]c2c1,-17%
CCN1CCN(C(=O)C2CCN(c3nnc(C)c4c(C)n(-c5ccc(C)cc5)nc34)CC2)CC1,-13%
CC(NC(=O)COC(=O)CNC(=O)c1ccccc1Cl)C1CC2CCC1C2 (stereo not drawn),-24%
N#CC1=C2SCN(Cc3ccccc3)CN2C(=O)CC1c1ccccc1F (stereo not drawn),50µM*
CCCn1c(=O)c2c(c3ccccc31)OC(C)C(=O)N2 (stereo not drawn),3%
O=S(=O)(c1ccc(NC(=S)NCc2ccco2)cc1)N1CCCCC1,5%
O=C(CCN1CCCCC1)Nc1ccccc1,16%
CCN(CC(=O)N1CCCCCC1)S(=O)(=O)c1ccc(Cl)cc1,11%

By substructure, the compounds so far with a CF3 group
molecule,VDR inh
O=C(Cc1ncc(C(F)(F)F)cc1Cl)NCc1cccnc1,16%
CCOC(=O)c1cnc2cc(C(F)(F)F)ccc2c1N1CCN(c2ccc(F)cc2)CC1,-3%
Cc1cc(=O)oc2cc(Oc3ccc([N+](=O)[O-])cc3C(F)(F)F)ccc12,-8%

Continuation:
molecule,VDR inh
N#C/C(=C\c1ccc(N2CCCC2)c([N+](=O)[O-])c1)c1nc2ccccc2[nH]1,9%
Cc1c(N=Cc2ccccn2)c(=O)n(-c2ccccc2)n1C,7%
Cc1ccc2nc(Nc3ccc(C)c(F)c3)c3nncn3c2c1,12%
Cc1cc(-c2nc3ccccc3c(=O)o2)ccc1[N+](=O)[O-],-5%
CC(=O)Nc1nnc(SCC(=O)N2C(C)CCCC2C)s1 (stereo not drawn),-4%
COc1ccc(C(CNC(=O)CNS(=O)(=O)c2ccc(NC(C)=O)cc2)N2CCOCC2)cc1 (stereo not drawn),-3%
O=C(O)Cn1cccc1C(=O)c1ccccc1,-15%
Cc1ccccc1NC(=S)NC12CN3CN(CN(C3)C1)C2,-3%
CC(=O)c1ccc(OC(=O)/C=C/c2ccccc2)cc1,-19%
CCOP(=O)(OCC)/C(=N/OC(=O)c1ccccc1C)C(N)=O,0%
Cc1cc(-c2sccc2C)nc(-n2cccc2)n1,1%
O=C1N=C(N2CCCCC2)S/C1=C/C1=Cc2ccccc2OC1,17%
COC(=O)c1sccc1NC(=O)Nc1ccc(C)c(C)c1,-1%
COc1ccc(OC)c(NC(=O)NNC(=O)COc2ccc(F)cc2F)c1,-2%
COc1ccc(Cc2nnc(NC(=O)CS(=O)(=O)c3ccc(C)cc3)s2)cc1OC,2%
COc1ccccc1NC(=S)NNC(=O)c1nn(C)cc1Cl,-16%
COc1ccc(C2(CNC(=O)c3ccc(N)cc3)CCCC2)cc1,3%
CCN(CC)C(=O)Cn1nc(-c2ccc(Cl)cc2)c2ccccc2c1=O,0%
COc1cccc(C(=O)NC(C)c2ccc(Br)cc2)c1 (stereo not drawn),-3%
O=[N+]([O-])c1ccc(-c2nnc(CNC3CCCC3)o2)cc1,-3%

Taken from the listing, four compounds:
molecule,VDR inh
COc1ccc(C2(CNC(=O)c3ccc(N)cc3)CCCC2)cc1,3%
CCN(CC)C(=O)Cn1nc(-c2ccc(Cl)cc2)c2ccccc2c1=O,0%
COc1cccc(C(=O)NC(C)c2ccc(Br)cc2)c1 (stereo not drawn),-3%
O=[N+]([O-])c1ccc(-c2nnc(CNC3CCCC3)o2)cc1,-3%

As entered above.
VDR inh result of NS(=O)(=O)c1ccc(CNS(=O)(=O)c2ccc3c(c2)OCCO3)cc1 : -12%
VDR inh result of CCOc1ccc(C(=O)OCc2cc(=O)n3cc(C)sc3n2)cc1 : -4%
VDR inh result of CCCn1c(=O)c2c(c3ccccc31)OC(C)C(=O)N2 (stereo not drawn) : 3%
VDR inh result of COc1ccc(-c2nc(CSCC(=O)N3CCN(c4ccccc4F)CC3)c(C)o2)cc1 : -16%

Carrying on:
molecule,VDR inh
CCOc1ccc(CCNc2nc3c(c(=O)n(C)c(=O)n3C)n2CC)cc1OCC,-9%
CS(=O)(=O)N(CC(=O)NCc1ccncc1)c1ccc(F)c(Cl)c1,9%
COc1cc(C2C(C#N)=C(N)N(Nc3ccccc3)C3=C2C(=O)CC(C)(C)C3)ccc1OCc1ccccc1 (stereo not drawn),-10%
CCCNC(=O)CN1C(=O)COc2ccc(S(=O)(=O)N3CCCC3)cc21,-3%
CCOc1ccc(CCNC(=O)c2ccc(C)c(-n3cnc4cccnc43)c2)cc1,6%
O=C(C1CCCN(Cc2ccc(Br)cc2)C1)N1CCCCC1 (stereo not drawn),-16%
C=CCCCCCCCCc1nc(=S)[nH][nH]1,-24%
O=C(O)C1C2C=CC(C2)C1C(=O)NCc1ccco1 (stereo not drawn),9%
COc1ccc(OC)c(CN2CCN(Cc3cc(=O)oc4cc(O)ccc34)CC2)c1,-1%
Cc1sc(NC(=S)NC(=O)c2ccco2)c(C#N)c1C,6%
Cc1csc(-c2cnn(-c3ccccc3)c2NC(=O)c2cccc(C(F)(F)F)c2)n1,12%
O=C(Nc1ccncc1)c1ccc2c(c1)S(=O)(=O)c1ccccc1C2=O,-11%
CCOC(=O)C1=C(CS(=O)(=O)c2ccc(F)c(C)c2)NC(=O)NC1c1ccc(F)c(F)c1 (stereo not drawn),-7%
O=C(CNC(=O)c1ccccc1)Oc1cccc(Cl)c1,13%
Cc1sc2ncnc(Sc3ccccc3C(=O)O)c2c1C,7%
Cc1cccc(C)c1NC(=O)C1CCCN1C(=O)OC(C)(C)C (stereo not drawn),-13%
CCNC(=O)Cc1ccc(NS(=O)(=O)c2ccc(F)cc2)cc1,2%
COc1ccc(Nc2nc(N)c([N+](=O)[O-])c(N3CCOCC3)n2)cc1,-9%
Cc1cc(NS(=O)(=O)c2ccc(NC(NC(=O)C(C(F)(F)F)C(F)(F)F)(C(F)(F)F)C(F)(F)F)cc2)no1,?
Cc1nnc2ccc(-c3ccc(NC(=O)c4cccnc4Cl)cc3)nn12,14%
O=C(Cn1cnc2ccccc2c1=O)c1ccc2c(c1)OCCO2,8%
Cc1ccc(Cl)cc1NC(=O)CSc1sc2c(O)cc(=O)[nH]c2c1C#N,7%
CCOC(=O)c1c(C)c(-c2ccccc2)n(CC(=O)N2CCCC2)c1C,-20%
